E coli growth – E. coli growth inhibition, primary screen, OD600; OD600 absorbance (test concentration not listed); Escherichia coli growth, 23 h; stronger effect = lower value; actives 0.21% (n = 330,000);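 active = OD600 absorbance below the run mean of sample wells minus 3.6 SD, in any replicate, cut at about 0.56 in these data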;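 also: stock transfer was 300 nL into about 60 µL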
Vif TR-FRET – inhibitors of Vif binding to APOBEC3G peptide, primary screen, biochemical, TR-FRET, GST-Vif 1-94, biotin-A3G peptide, dose response retest (AID 1117319); Virion infectivity factor (Human immunodeficiency virus type 1 group M subtype B (isolate …; TR-FRET GST-Vif / biotin-A3G peptide binding; higher % means a stronger effect; test concentration not given here; strong numbers were not always called active; one-dose inhibition, %; IC50 in µM for titrated hits; actives 0.57% (n = 260,000);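 active = above the screen mean plus three standard deviations and confirmed in dose response; inconclusive = results disagree or hit not tested in dose response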;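 also: Vif residues 1-94 fused to GST binding biotinylated APOBEC3G peptide 110-148; 0% = full assay without inhibitor and 100% = GST in place of GST-Vif; retest series ran down from 100 µM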
HNF4A DNA FP – change in binding of human HNF4A to DNA, primary screen, biochemical, fluorescence polarization, FITC-DNA; 1 h; activity change, % at 10 µM; actives 0.3% (n = 360,000); AID 1224865, 2016; in the data active = activity change above about 30%, passing the limit was not always enough;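 also: controls were the assay level and a saturating level of protein; the project sought stronger binding though the title names inhibitors; some compounds called inactive have numbers as strong as hits; positive values seem to mean higher polarization but the record does not say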
Target sequence (P41235 whole entry, looked up): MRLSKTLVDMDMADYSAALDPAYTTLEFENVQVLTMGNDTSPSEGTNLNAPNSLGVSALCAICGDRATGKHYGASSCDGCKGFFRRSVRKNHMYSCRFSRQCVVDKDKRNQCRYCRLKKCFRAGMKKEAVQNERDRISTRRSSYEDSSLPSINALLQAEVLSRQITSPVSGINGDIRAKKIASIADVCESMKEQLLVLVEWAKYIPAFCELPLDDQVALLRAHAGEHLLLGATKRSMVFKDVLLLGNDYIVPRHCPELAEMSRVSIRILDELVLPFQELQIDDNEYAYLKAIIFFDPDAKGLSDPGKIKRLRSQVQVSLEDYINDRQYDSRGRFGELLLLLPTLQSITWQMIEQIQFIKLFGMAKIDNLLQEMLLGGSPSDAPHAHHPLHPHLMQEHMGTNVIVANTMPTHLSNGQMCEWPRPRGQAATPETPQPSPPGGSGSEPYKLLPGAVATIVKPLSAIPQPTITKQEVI
UCH37 DUB inh – inhibitors of human UCH37 deubiquitinase, primary screen, biochemical, Ub-AMC cleavage, fluorescence; Ubiquitin carboxyl-terminal hydrolase isozyme L5 (Homo sapiens), Q9Y5K5; purified proteasome/UCH37; inhibition, % (test concentration not listed); actives 0.33% (n = 330,000);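 active = mean of two replicates above 20%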;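 also: 0% = compound-free wells with enzyme and 100% = wells lacking proteasome; stock transfer was 100 nL into about 20 µL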
Target sequence (Q9Y5K5 whole entry, looked up): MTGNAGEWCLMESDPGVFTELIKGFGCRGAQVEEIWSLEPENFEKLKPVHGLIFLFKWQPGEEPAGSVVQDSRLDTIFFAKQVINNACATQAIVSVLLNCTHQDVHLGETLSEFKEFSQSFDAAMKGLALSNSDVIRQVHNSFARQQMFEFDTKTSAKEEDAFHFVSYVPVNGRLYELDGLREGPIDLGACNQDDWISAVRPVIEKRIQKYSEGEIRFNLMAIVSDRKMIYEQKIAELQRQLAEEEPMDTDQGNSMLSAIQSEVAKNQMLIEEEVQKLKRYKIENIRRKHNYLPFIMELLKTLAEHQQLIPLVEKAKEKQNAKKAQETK
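Test system – human UCH37 enzyme supplied as purified proteasome complex · Incubation – 30 min preincubation with enzyme, 25 min cleavage at room temperature · Detection – AMC fluorescence from Ub-AMC cleavage, excitation 355 nm, emission 460 nm · Benchmarks – no-proteasome wells (full inhibition) and compound-free wells (no inhibition)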
RanGTP-Imp inh – inhibitors of RanGTP-importin-beta interaction, primary screen, biochemical, FRET, CFP-Ran, YFP-importin-beta, homogeneous; cell-free CFP-Ran/YFP-importin-beta FRET ratio; inhibition, % (concentration not given with the values); actives 1.1% (n = 300,000);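 active = most replicates above 15%; inconclusive = exactly half above 15%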;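 also: 0% = DMSO wells and 100% = Ran loaded with GDP instead of GTP; wells of about 40 µL received 100 nL stock; the first replicate is given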
FGF22 binding – binders of human FGF22 protein, primary screen, FGF22 synaptogenesis inhibitor project, biophysical, thermal shift, single point; calls only at 9.99 µM; Fibroblast growth factor 22 (Homo sapiens), Q9HCT0; actives 1.5% (n = 340,000); recombinant FGF22 thermal shift, SYPRO orange fluorescence; percent of sucrose octasulfate shift, DMSO zero;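 active = melting point raised past a set limit in the mean and every replicate; inconclusive = no clear call; three in four hits are not shown here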
Target sequence (Q9HCT0 whole entry, looked up): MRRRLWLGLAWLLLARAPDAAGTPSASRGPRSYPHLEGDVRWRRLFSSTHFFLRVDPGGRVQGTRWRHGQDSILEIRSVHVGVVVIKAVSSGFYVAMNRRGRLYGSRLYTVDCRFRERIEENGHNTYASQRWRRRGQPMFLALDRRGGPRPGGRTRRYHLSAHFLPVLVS
MLL AF4-AF9 inh – inhibitors of AF4 peptide binding to AF9, primary screen, biochemical, AlphaScreen, biotin-AF4 peptide, FLAG-AF9, single point | actives 0.47% (n = 350,000) | inhibition, % at 10 µM;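 active = every replicate reaching a set inhibition limit, whatever the replicate mean, cut at about 25% in these data; inconclusive = mean inhibition reaches that limit but some replicates miss it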;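 also: 0% = plate neutral control median and 100% = total signal loss; the record names both 10 and 1 µM as test concentration; the first replicate is given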
Numbers without * were called inactive; i = inactive; ? = inconclusive; · = not tested or not shown; & = joins results of further samples. Only part of the results is shown; the hit share may differ from the screen's.

SMILES | E coli growth | Vif TR-FRET | HNF4A DNA FP | UCH37 DUB inh | RanGTP-Imp inh | FGF22 binding | MLL AF4-AF9 inh
COc1ccccc1N1C(=O)N(C(C)=O)C2C1Nc1ccccc1N2C (centres undefined) | 0.693 | 17.0% | 13.5 | 4.3 | -6.5 | i | 8.3
Cc1cc(Cl)c(S(=O)(=O)N2CCCCCC2)cc1OCC(=O)NC1CCCCC1 | 0.718 | 0.6%&8.6% | 2.3 | 2.5 | ? | · | ·
CCS(=O)(=O)c1ccc(C(=O)Nc2ccccc2)c(Cl)c1Cl | 0.773 | 1.6% | -2.4 | 4.9 | -1.1 | · | ·
CCOCCSc1nc2c(c(=O)[nH]c(=O)n2C)n1CCCc1ccccc1 | 0.659 | -3.3% | -4.1 | 2.3 | 3.7 | · | ·
CCc1ccc([C@H]2[C@@H]3C(=O)C[C@@H]4C(=O)N(c5ccccc5)C(=O)[C@@H]4[C@@H]3CN2S(=O)(=O)c2ccc(C)cc2)cc1 | · | · | 0.7 | · | · | i | -1.7
Cc1cc(OCC(=O)C(C)(C)C)c2c(C)c(C)c(=O)oc2c1 | 0.771 | 2.3% | -0.7 | -13.5 | -0.2 | · | ·
COc1ccc(-n2c(O)c(/C=N/NS(=O)(=O)c3cccc([N+](=O)[O-])c3)c3ccccc3c2=O)cc1OC | 0.681 | ? | 114.2 | -3.8 | 4.3 | i | 5.8
COc1cc(OC)c2c(-c3cccc(-c4ccc(OC(F)(F)F)cc4)c3)cc(=O)oc2c1 | · | · | 4.6 | · | · | i | -0.5
COC(=O)c1ccc(CNC(=O)CCNC(=O)c2ccco2)cc1 | 0.675 | · | -2.3 | -2.5 | · | i | -14.2
COc1ccccc1Oc1coc2c(CN(C)C)c(O)ccc2c1=O | 0.668 | -1.1% | 1.5 | -169.5 | 4.2 | · | ·
CC(C)c1ccc(NC(=S)NN(c2ccccc2)c2ccccc2)cc1 | 0.681 | -7.0% | -2.0 | 0.0 | -0.4 | · | ·
CC(OC(=O)CCCNC(=O)c1ccc(Cl)cc1)C(=O)N(C)Cc1ccccc1 (centres undefined) | 0.699 | · | 0.3 | 4.0 | 0.3 | i | -0.8
O=C(Nc1ccccc1Cl)NC1(C(=O)N2CCOCC2)CCCCC1 | 0.737 | -8.3% | 0.6 | 1.4 | 4.3 | i | -1.6
COn1c(=O)c(=O)n(OC)c2ccccc21 | 0.686 | -0.6% | 0.9 | 8.3 | 5.0 | · | ·
COC(=O)NC1CSCC1OC(=O)CN1C(=O)c2ccccc2C1=O (centres undefined) | 0.692 | 11.0% | 5.2 | 1.3 | 3.3 | · | ·
Cc1ccoc1C(=O)Nc1ccc2ccccc2c1 | · | · | 1.7 | · | 0.0 | i | -4.9
CCOC(=O)N1CCN(Cc2nc3c(c(=O)n(C)c(=O)n3C)n2Cc2cccc(C)c2)CC1 | 0.743 | 5.5% | 11.4 | 0.9 | 1.8 | · | ·
CC1(C)CC(=O)c2cnc(NC(=O)CSc3nc4ccccc4o3)nc2C1 | 0.711 | 7.2% | -1.4 | 0.2 | -0.2 | · | ·
Cc1ccc(CCNC(=O)C2CCCN(S(=O)(=O)c3c(C)nn(C)c3C)C2)cc1 (centres undefined) | 0.744 | 0.6% | 3.5 | -2.4 | -3.1 | i | -2.0
COCCCNC(=O)c1ccc2c(=O)n(Cc3ccc4c(c3)OCO4)c(=S)[nH]c2c1 | 0.748 | -6.2% | -2.4 | 1.5 | -0.4 | · | ·
COCCN1Cc2cccc(C(=O)NCc3ccccn3)c2C1=O | 0.753 | 21.3% | -2.7 | 5.7 | 8.2 | i | 5.8
COc1ccccc1C(=O)OCc1cc(=O)n2ccsc2n1 | 0.713 | 11.0% | -5.7 | 4.0 | · | i | -5.5
COc1cc(S(=O)(=O)Nc2ccccn2)ccc1F | 0.702 | 30.8% | -1.6 | -3.5 | -1.1 | · | ·
CC(C)Oc1ccc(/C=C(/NC(=O)c2ccccc2)C(=O)NC(Cc2ccccc2)C(=O)O)cc1 (centres undefined) | 0.704 | · | -0.1 | 2.9 | 2.0 | i | -0.3
COc1cc(/C=C/C(=O)OCC(=O)N2CC(=O)Nc3ccccc32)ccc1O | 0.673 | 25.8% | 5.0 | -12.5 | 0.0 | i | 1.2
COc1ccc(N(CC(=O)NCc2ccc(F)cc2)C(=O)c2snc(C(N)=O)c2N)cc1OC | 0.641 | -3.2% | -0.9 | -7.5 | 2.9 | i | -2.2
CSc1nc(Oc2ccc(F)cc2F)cc(C(F)(F)F)n1 | 0.738 | 11.4% | -3.1 | 2.0 | -1.5 | · | ·
CCN1C(=O)[C@H]2[C@@H](c3ccc(OC)cc3)N[C@]3(CCCN(CCC(C)C)C3=O)[C@H]2C1=O | · | 1.4% | -1.1 | · | · | i | -3.5
C/C(=N\NC(=O)c1ccoc1C)c1ccc(Br)s1 | · | -0.1% | 4.6 | · | 1.2 | i | 0.2
O=C(NC1CCCCC1)C(c1cccs1)N(Cc1cccs1)C(=O)c1ccco1 (centres undefined) | 0.686 | 2.1% | 4.3 | 3.9 | -2.8 | · | ·
Cc1cc(C(=O)NCc2cccs2)n(-c2ccccc2)n1 | 0.686 | -3.7% | -3.0 | 0.3 | ? | i | -4.1
CCn1c(SCc2c(Cl)cccc2Cl)nc2nc3c(cc2c1=O)CCCC3 | 0.714 | · | 2.0 | 0.4 | 0.3 | i | -34.9
COc1ccc(C(=O)N2CCOC2CNC(=O)C(=O)NCc2ccco2)cc1 (centres undefined) | 0.686 | 8.3% | -6.6 | 4.5 | 1.4 | i | -2.7
COc1ccc(NC(=O)c2cc(-c3ccccc3)nc3c2c(C)nn3-c2ccccc2)c(OC)c1 | 0.709 | 1.0% | -1.4 | -94.5 | 1.0 | i | 4.3
COc1cccc(-n2c(SCC(N)=O)nnc2-c2ccco2)c1 | 0.635 | 2.6% | 1.6 | 6.2 | 1.9 | i | -1.3
Cc1cc(NC(=O)CSc2nnc(-c3ccco3)n2Cc2ccccc2)no1 | 0.703 | -1.1% | 0.3 | -1.6 | 0.1 | · | ·

Brought forward from above: 2 entries, then new ones.
SMILES | E coli growth | Vif TR-FRET | HNF4A DNA FP | UCH37 DUB inh | RanGTP-Imp inh | FGF22 binding | MLL AF4-AF9 inh
COc1cccc(-n2c(SCC(N)=O)nnc2-c2ccco2)c1 | 0.635 | 2.6% | 1.6 | 6.2 | 1.9 | i | -1.3
Cc1cc(NC(=O)CSc2nnc(-c3ccco3)n2Cc2ccccc2)no1 | 0.703 | -1.1% | 0.3 | -1.6 | 0.1 | · | ·
O=C(Nc1ccc2c(c1)CCC2)c1ncoc1-c1ccccc1F | 0.719 | · | -2.7 | 1.3 | -3.4 | i | -4.6
O=S(=O)(NC1CCCC1)c1ccc(F)cc1F | · | 21.1% | 3.3 | · | · | i | 0.2
Cc1ccc(-c2nn(C)c(=O)c3ccccc23)cc1S(=O)(=O)NCCO | 0.721 | 13.0% | 1.1 | 4.7 | ? | · | ·
CCOC(=O)c1c(OCC)[nH]c2ccc(O)cc12 | 0.719 | 18.2% | 1.3 | 3.7 | 3.6 | · | ·
CCN1C(=O)[C@H]2[C@H]3CN=C(SCc4ccc(Cl)cc4)N3[C@@](C)(C(=O)OC)[C@H]2C1=O | 0.693 | 0.2% | -2.0 | 1.4 | · | i | -1.6
Cc1oc(-c2cccc(F)c2)nc1CN1CCCCC1CCn1cccn1 (centres undefined) | 0.689 | 0.8% | 0.9 | -1.4 | 3.1 | i | 0.4
O=C(CCN1C(=O)C2CC=CCC2C1=O)Nc1ccccc1Cl (centres undefined) | 0.71 | -2.5% | 0.8 | 2.0 | -1.1 | i | -1.6
CC(C)[C@H](N)c1nnc2n1N=C(c1ccc(Cl)cc1)CS2 | 0.628 | -3.9% | 3.1 | 3.4 | 2.6 | i | 0.0
COC(=O)[C@@H](Cc1c[nH]c2ccccc12)NC(=O)C1CCCN(S(=O)(=O)c2ccc(C)cc2)C1 (some centres undefined) | 0.674 | 0.9% | -5.7 | 1.3 | -1.1 | i | 0.5
CCOc1ncccc1C(=O)OCc1ccccc1 | 0.635 | 2.5% | -3.2 | 0.3 | -0.7 | i | -0.5
CN(Cc1ccccc1)c1ccc2nnc(-c3ccccc3)n2n1 | 0.728 | 5.4% | -1.4 | 1.9 | 6.8 | i | -1.8
Cc1ccc(S(=O)(=O)N2CCOCC2)cc1C(=O)Nc1ccccn1 | 0.757 | 5.5% | 1.5 | -1.3 | -0.2 | · | ·
Cc1cc2c(c(=O)o1)C1(C(=O)N(C)c3ccccc31)C(C#N)=C(N)O2 (centres undefined) | 0.717 | 3.9% | -2.8 | 2.0 | -1.8 | · | ·
O=C(NNC(=O)c1c(F)cccc1F)c1ccccc1-n1cccc1 | 0.629 | 0.1% | 2.1 | 2.9 | 0.9 | i | -1.2
CC1CCN(CCCCOc2ccc(F)cc2)CC1 | 0.678 | -5.5% | -0.7 | -3.2 | 0.0 | · | ·
CCCCN(C(=O)c1ccccc1Br)C(c1ccc(OC)cc1)c1nc2ccccc2[nH]1 (centres undefined) | · | · | 3.1 | · | · | i | 1.8
COc1ccc2c(Cl)c(C(=O)N/N=C/c3ccncc3)sc2c1 | · | · | 2.9 | · | 0.1 | i | 1.4
Cc1cccc(NC(=S)N2CCN(C(=O)c3ccco3)CC2)c1 | 0.732 | · | -0.4 | 0.9 | 1.6 | i | -1.9
Cc1cc(C)nc(/N=C2\NC(=O)CC(C(=O)O)N2c2ccc(Cl)cc2)n1 (centres undefined) | 0.703 | 2.8% | 0.6 | 1.7 | 3.7 | i | -0.6
COc1ccc(CCNCc2cc3ccc(C)cc3[nH]c2=O)cc1OC | 0.675 | 3.5% | 5.0 | -0.1 | 1.1 | i | 3.2
COc1ccc(NC2CCCN(C(=O)c3ccncc3)C2)cc1 (centres undefined) | 0.681 | · | 8.0 | 3.5 | 1.9 | i | -2.2
COc1cc(C=O)ccc1OCc1ccccc1Br | 0.668 | -6.5% | 0.8 | 2.0 | ? | · | ·
COc1ccc(C(=O)CCN2CCCCCC2)cc1 | 0.706 | 15.9% | 2.7 | 4.4 | ? | i | 3.1
Cc1ccc(C(=O)Nc2cccc(C(F)(F)F)c2)cc1NC(=O)c1[nH]cnc1C(N)=O | 0.665 | · | -0.7 | 1.8 | · | i | -13.2
Cc1ccc(N(O)C(=O)OCCNC(=O)Nc2ccccc2)cc1 | 0.701 | -4.9% | -1.7 | 4.2 | -1.4 | · | ·
COc1cc(C(=O)NNC(=O)COc2cccc(F)c2)ccc1OCC(=O)N1CCOCC1 | 0.698 | -2.2% | -1.4 | 2.0 | · | i | -1.3
CN(C)CCCNc1nc2cc(-c3ccc(C(=O)N4CCN(C)CC4)cc3)sc2c(=O)n1C | · | · | 1.1 | · | · | i | 1.7
N#CC1=C(SCc2ccc(C#N)cc2)N=C(N)C(c2nc(-c3ccccc3)cs2)C12CCCCC2 (centres undefined) | 0.729 | 4.8%&12.4% | 4.4 | 1.4 | 1.1 | · | ·
Cc1ccc(C(c2sc3nc(C)nn3c2O)N2CCN(C(=O)c3ccco3)CC2)cc1 (centres undefined) | 0.686 | 10.0% | 0.8 | 7.2 | ? | i | 1.8
O=P(O)(CCc1ccccc1)C(O)c1ccccc1 (centres undefined) | 0.71 | 6.0% | 0.8 | 3.4 | -2.7 | · | ·
CCCCNC(=O)c1ccc2c(c1)N(CC)C(=O)CS2 | 0.748 | 4.4% | 5.1 | -2.2 | 0.6 | · | ·
